High-throughput results deposited in PubChem by National Center for Advancing Translational Sciences (NCATS).
miR-21 reporter – qHTS Assay for Modulators of miRNAs and/orActivators of miR-21. HeLa miR-21 FLuc reporter, luciferase, 48 h. Potency, µM (series often up to 38.3 µM), for the others: at the highest dose reporter change, positive = more light. 340,000 tested, under 10 active; active = well fitted rising curve with a large enough effect; inconclusive = small, poorly fitted or top-dose-only effect; inactive = no such curve, though single readings can be large or run the other way;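 note: % of control where 0% means no effect; miR-21 action dims this reporter so a rising signal means less miR-21 action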
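HeLa cells endogenously expressing miR-21, stably carrying CMV-driven firefly luciferase with a downstream miR-21 binding site, 2000 cells/well. Titrations up to approximately 40 uM, 48 hours; luciferase luminescence read.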
* hit, by the source's call.

Fc1ccc(-c2noc3ncnc(NCCCN4CCN(c5ccccc5)CC4)c23)cc1 was read as miR-21 reporter -0.6%.
For Cc1ccc2nc(NC(=O)CSc3cc(C)[nH]c(=O)n3)sc2c1 the results were miR-21 reporter -27.7%.
For COc1ccc(N2CCN(C(=O)CN3CCSc4ccccc43)CC2)cc1 the results were miR-21 reporter 3.7%.
`COc1ccc(C(=O)N2CCC(c3nc(-c4ccc(S(=O)(=O)N5CCCC5)cc4)no3)CC2)cc1` gave miR-21 reporter 25.3%.
For O=C(CSc1nc2nccnc2c(=O)n1CCc1c[nH]c2ccccc12)Nc1ccccc1 the results were miR-21 reporter 0.3%.
Screening O=C(Nc1ccc2nc3n(c(=O)c2c1)CCCCC3)c1cccc(C(F)(F)F)c1 returned miR-21 reporter -5.2%.
For CCn1cc2nc(SCc3cccc(C)c3)n(CCc3ccccc3)c(=O)c2n1 the results were miR-21 reporter 18.5%.
CC(=O)c1ccc(N2CCN(c3ccc4cc(S(=O)(=O)N5CCCCC5)ccc4n3)CC2)cc1 was read as miR-21 reporter -3.4%.
Screening Cc1cccc(COc2ccc(-c3cc(C(F)(F)F)n4nc(C)cc4n3)cc2)c1 returned miR-21 reporter 0.3%.
For Cc1cccc(NC(=O)CSc2cn(CC(=O)N3CCC(C)CC3)c3ccccc23)c1C the results were miR-21 reporter 9.0%.
`COc1ccc(N2CCN(C(=O)CCn3c(=O)[nH]c4cc(OC)c(OC)cc4c3=O)CC2)cc1` gave miR-21 reporter 0.4%.
For CCN1c2ccccc2-c2nc(SCC(=O)NCc3ccc(Cl)cc3)ncc2S1(=O)=O the results were miR-21 reporter 7.0%.
`CCCCOc1cccc(C(=O)N(Cc2sccc2C)C2CCS(=O)(=O)C2)c1` (stereo not given) gave miR-21 reporter 9.1%.
`Cc1ccccc1CSc1nc2cccnc2n1Cc1ccc(C(=O)NCCc2cccs2)cc1` gave miR-21 reporter -33.4%.
`COc1ccc(Cl)cc1NC(=O)N1CCC(CN2CCc3ccccc3C2)CC1` gave miR-21 reporter 5.6%.
COc1ccc(Cn2c(C(=O)O)c(CNCc3ccco3)c3ccc(C)cc32)cc1 was read as miR-21 reporter 15.3%.
For COCCn1c(C)cc(O)c(C(c2ccc(F)cc2)N2CCC(C)CC2)c1=O (stereo not given) the results were miR-21 reporter -3.0%.
Screening C#CC(C)(C)NS(=O)(=O)c1cc(-c2nnc(Nc3ccc(C)cc3)c3ccccc23)ccc1C returned miR-21 reporter 29.3%.
`Cc1ccc(CCNC(=O)CN(c2ccc(C)cc2)S(=O)(=O)N(C)C)cc1` gave miR-21 reporter -0.6%.
Screening CCCCOC(=O)c1c(C)oc2ccc(NS(=O)(=O)c3ccc(F)cc3C)cc12 returned miR-21 reporter -1.6%.
Screening Cc1ccc(NC(=O)Cn2cnc3sc(C)c(S(=O)(=O)N4CCN(c5ncccn5)CC4)c3c2=O)cc1F returned miR-21 reporter -6.2%.
`CC(=O)c1ccc(N2CCN(c3nc4c(S(=O)(=O)c5ccccc5)nnn4c4ccc(Cl)cc34)CC2)cc1` gave miR-21 reporter 0.1%.
`CCC(=O)Nc1sc2c(c1C(=O)Nc1cccc(C)c1)CCCC2` gave miR-21 reporter -0.5%.
CCOc1ccccc1NC(=O)c1sc(-n2nc(C)c(CCC(C)C)c2C)nc1C was read as miR-21 reporter -1.0%.
Cc1ccc(C)c(NC(=O)CSc2nc3nccnc3c(=O)n2CCc2c[nH]c3ccccc23)c1 was read as miR-21 reporter -2.2%.
For CCSc1ncc(Cl)c(C(=O)Nc2ccc(S(=O)(=O)N3CCC(C)CC3)cc2)n1 the results were miR-21 reporter 29.1%.
`COc1ccc(CNC(=O)C2CCCN(C(=O)N3CCOc4ccccc43)C2)cc1` (stereo not given) gave miR-21 reporter -14.0%.
Screening CCOC(=O)c1c(C)c(-c2ccccc2)n(CC(=O)Nc2cc(C)ccc2OC)c1C returned miR-21 reporter -1.0%.
`Cc1cccc(-c2noc(-c3cc(C(C)C)[nH]n3)n2)c1` gave miR-21 reporter -39.6%.
For Cc1nn(C(C)C(=O)N2CCN(c3ccc(Cl)cc3)CC2)c(=O)c2cc3occc3n12 (stereo not given) the results were miR-21 reporter inconclusive.
Cc1cccc(OCCSc2nc(-c3cccs3)nc3cc(=O)[nH]n23)c1 was read as miR-21 reporter -29.5%.
`O=C(Nc1ccc2nn(-c3ccc(F)cc3)nc2c1)c1cccc2c(Cl)cccc12` gave miR-21 reporter -1.9%.
Screening CCC(=O)N1CCc2cc(S(=O)(=O)NC(C(=O)Nc3cc(OC)cc(OC)c3)C(C)C)ccc21 (stereo not given) returned miR-21 reporter -3.6%.
Screening Cc1cc(C)cc(-n2c(C)cc(C(=O)C(=O)Nc3ccccc3F)c2C)c1 returned miR-21 reporter 2.3%.
Cn1c(=NC(=O)c2ccc(F)cc2)sc2cc(Br)ccc21 was read as miR-21 reporter -53.5%.
`Cc1ccc2c(c1)cc1c(=O)n(Cc3ccccc3Cl)nc(C)n12` gave miR-21 reporter -0.3%.
`CC(C)c1ccc(NC(=O)Cn2nnc(C(=O)NCCc3ccccc3)c2N)cc1` gave miR-21 reporter -3.5%.
Screening CCOc1ccccc1C(=O)NC1(C(F)(F)F)C(=O)Nc2c1c(=O)[nH]c(=O)n2-c1ccc(F)cc1 (stereo not given) returned miR-21 reporter 4.2%.
Screening CC(CNC(=O)c1nnc(Cc2ccc(F)cc2)o1)c1ccccc1 (stereo not given) returned miR-21 reporter -2.5%.
For Cc1ccc(CNC(=O)c2cn(C)c3ccc(S(=O)(=O)N4CCC(C)CC4)cc3c2=O)cc1 the results were miR-21 reporter -2.6%.
For CCCCOc1ccc(CNC(=O)c2cnc3sc(N4CCOCC4)nn3c2=O)cc1 the results were miR-21 reporter -4.4%.
Cc1nn2c(=O)cc(COC(=O)c3ccccc3NC(=O)c3ccccc3C)nc2s1 was read as miR-21 reporter 0.4%.
COc1ccc(C(CC(=O)Nc2cccc(C)c2C)N2Cc3ccccc3C2=O)cc1 (stereo not given) was read as miR-21 reporter 8.4%.
`Cc1cc2nnc(SCC(=O)Nc3ccc(F)c(Cl)c3)n2c2ccccc12` gave miR-21 reporter -1.8%.
Screening CCCCNC(=O)c1nn(-c2ccc(C)cc2)c(=O)c2c1c1ccccc1n2C returned miR-21 reporter 0.4%.
For COc1cccc(CNC(=O)C2CCN(Cc3cc4ccccc4n3Cc3ccccc3)CC2)c1OC the results were miR-21 reporter 28.1%.
CCS(=O)(=O)N1CCCc2cc(C(=O)Nc3cccc(C(C)=O)c3)ccc21 was read as miR-21 reporter 0.4%.
`CCc1ccc(NC(=O)c2ccc(F)c(S(=O)(=O)N3CCN(c4cc(C)ccc4C)CC3)c2)cc1` gave miR-21 reporter 12.6%.
`Cc1nc(SCC(=O)Nc2ccc(Cl)cc2C(F)(F)F)[nH]c(=O)c1Cc1ccccc1` gave miR-21 reporter -1.1%.
Screening O=C(O)CCN1C(=O)/C(=C2\C(=O)N(Cc3ccccc3Cl)c3ccccc32)SC1=S returned miR-21 reporter 0.0%.
Cc1ccc(-n2c(=O)c3oc4ccccc4c3n(Cc3ccccc3)c2=O)cc1C was read as miR-21 reporter 0.1%.
For Cc1cccc(Nc2nc3c(S(=O)(=O)c4ccc(Br)cc4)nnn3c3ccsc23)c1C the results were miR-21 reporter 4.1%.
COC(=O)c1ccccc1NC(=O)CN1C(=O)COc2ccc(Cl)cc21 was read as miR-21 reporter -23.4%.
Screening COc1ccc(CNC(=O)c2cc(Nc3ccc(C)cc3C)nc3ccccc23)cc1 returned miR-21 reporter 12.8%.
For COc1cc(C(=O)Nc2ccccc2-c2nc(-c3ccc(C)cc3)no2)cc(OC)c1OC the results were miR-21 reporter -1.7%.
O=C(Nc1cccc(Cl)c1)c1ccc2nc(Cc3ccccc3)oc2c1 was read as miR-21 reporter 12.4%.
For CCc1nn2c(=O)c(S(=O)(=O)Nc3ccc(OC)c(Cl)c3)c(C)nc2s1 the results were miR-21 reporter 8.0%.
Screening CCOc1ccc(S(=O)(=O)Nc2ccc3c(c2)c(C(C)=O)c(C)n3S(=O)(=O)c2ccc(OCC)cc2)cc1 returned miR-21 reporter 14.4%.
Screening COc1ccc(-c2nc(SCC(=O)Nc3ccc4c(c3)OCO4)c(-c3ccc(OC)cc3)[nH]2)cc1 returned miR-21 reporter 4.8%.
Cc1ncc(CO)c2c1Oc1nc(-c3ccc(F)cc3)nc(SCc3ccc(F)cc3Cl)c1C2 was read as miR-21 reporter 0.6%.
O=C(CN1C(=O)C2(SCC(=O)N2c2ccc(F)c(F)c2)c2ccccc21)Nc1cccc(Cl)c1 (stereo not given) was read as miR-21 reporter 27.4%.
Cc1ccccc1CN1c2ccccc2-c2nc(SCC(N)=O)ncc2S1(=O)=O was read as miR-21 reporter 0.4%.
COc1ccc(C)cc1NC(=O)C(=O)NCCc1csc(-c2ccc(C)cc2)n1 was read as miR-21 reporter -0.1%.
Screening Cc1cccc(NC(=O)CSc2nc(-c3cccs3)cc(C(F)(F)F)c2C#N)c1 returned miR-21 reporter -0.7%.
Screening CCOc1ccc(CNC(=O)CSc2nnc(C)c3c(C)n(-c4ccc(Cl)cc4)nc23)cc1 returned miR-21 reporter -1.8%.
For Cc1cccc(OCCn2c(SCC(N)=O)nc3ccccc32)c1 the results were miR-21 reporter inconclusive.
For COc1ccc(CNC(=O)CCC2N=C3c4ccccc4N=C(SCc4ccc(F)cc4)N3C2=O)cc1 (stereo not given) the results were miR-21 reporter 9.3%.
CCOc1ccc(OCC)c(Nc2ccc3cc(S(=O)(=O)N4CCCC4)ccc3n2)c1 was read as miR-21 reporter 6.4%.
CCCCOc1ccc(Cn2c(=O)sc3ccccc32)cc1 was read as miR-21 reporter -13.8%.
For CCOC(=O)c1cccc(NC(=O)NCc2ccc3c(c2)CCN3C(=O)CC)c1 the results were miR-21 reporter 3.6%.
COc1ccc(CNC(=O)CCCc2cn(C)c3ccccc23)c(OC)c1 was read as miR-21 reporter 3.9%.
CCOc1ccccc1NC(=O)NCCn1c(=O)oc2ccc(C)cc21 was read as miR-21 reporter inconclusive.
`O=c1cc(N2CCN(c3ccc(F)cc3)CC2)[nH]c(=O)n1-c1cccc(Br)c1` gave miR-21 reporter 19.8%.
`COc1cccc(CNC(=O)CCn2cnc3ccccc3c2=O)c1` gave miR-21 reporter 2.6%.
Screening CCOC(=O)c1nnn(C(CC)C(=O)Nc2c(C)cccc2C)c1C(=O)OCC (stereo not given) returned miR-21 reporter 4.7%.
Screening CCc1nc2ccc(C(=O)N3CCN(c4cc(Cl)ccc4C)CC3)cc2nc1CC returned miR-21 reporter 7.8%.
CCc1ccc(OCC(=O)Nc2ccc3oc(-c4ccc(OC)cc4)nc3c2)cc1 was read as miR-21 reporter -13.8%.
`CCCCn1c(SCC(=O)Nc2ccc(OCC)cc2)nc2ccsc2c1=O` gave miR-21 reporter 8.1%.
`Cc1ccc2oc(-c3cccc(NC(=O)c4cccc5c(Cl)cccc45)c3)nc2c1` gave miR-21 reporter -13.4%.
`COC(=O)c1ccc(C2c3c(-c4ccccc4O)n[nH]c3C(=O)N2Cc2cccnc2)cc1` (stereo not given) gave miR-21 reporter -3.3%.
Screening COC(=O)c1ccccc1NC(=O)CN(c1ccccc1OC)S(C)(=O)=O returned miR-21 reporter 1.4%.
`CCOc1ccc(-n2nc3ccc(NC(=O)c4cccc(F)c4)cc3n2)cc1` gave miR-21 reporter 1.2%.
`Cc1nc(Nc2ccc(Cl)cc2)cc(-c2ccccc2)n1` gave miR-21 reporter -19.7%.
For COc1cc(NC(=O)c2cc3nc(-c4ccc(C)cc4)cc(C(F)(F)F)n3n2)cc(OC)c1OC the results were miR-21 reporter -5.3%.
`Cc1cc(F)ccc1NC(=O)CCSc1nc(-c2ccco2)cc(C(F)(F)F)n1` gave miR-21 reporter -3.1%.
`Cc1ccc2nc(CSc3nnc(NC(=O)COc4ccccc4)s3)cc(=O)n2c1` gave miR-21 reporter -2.2%.
CCc1ccccc1NC(=O)CSc1ncc2c(n1)-c1ccccc1N(Cc1ccc(C)cc1)S2(=O)=O was read as miR-21 reporter 7.6%.
Screening COc1cccc(NC(=O)Cn2c(=O)n(-c3cccc(OC)c3)c(=O)c3sc4ccccc4c32)c1 returned miR-21 reporter -21.9%.
COc1ccccc1OCC(=O)N(Cc1ccc(N(C)C)cc1)CC1CCCO1 (stereo not given) was read as miR-21 reporter 18.1%.
`O=C(CCS(=O)(=O)c1cc(Br)cc2c1N(C(=O)C1CC1)CC2)N1CCN(c2ccc(F)cc2)CC1` gave miR-21 reporter 3.2%.

Filtered by structure: those above containing a thiophene ring, fused or not (9)
`CCCCOc1cccc(C(=O)N(Cc2sccc2C)C2CCS(=O)(=O)C2)c1` (stereo not given) gave miR-21 reporter 9.1%.
`Cc1ccccc1CSc1nc2cccnc2n1Cc1ccc(C(=O)NCCc2cccs2)cc1` gave miR-21 reporter -33.4%.
Screening Cc1ccc(NC(=O)Cn2cnc3sc(C)c(S(=O)(=O)N4CCN(c5ncccn5)CC4)c3c2=O)cc1F returned miR-21 reporter -6.2%.
`CCC(=O)Nc1sc2c(c1C(=O)Nc1cccc(C)c1)CCCC2` gave miR-21 reporter -0.5%.
Cc1cccc(OCCSc2nc(-c3cccs3)nc3cc(=O)[nH]n23)c1 was read as miR-21 reporter -29.5%.
For Cc1cccc(Nc2nc3c(S(=O)(=O)c4ccc(Br)cc4)nnn3c3ccsc23)c1C the results were miR-21 reporter 4.1%.
Screening Cc1cccc(NC(=O)CSc2nc(-c3cccs3)cc(C(F)(F)F)c2C#N)c1 returned miR-21 reporter -0.7%.
`CCCCn1c(SCC(=O)Nc2ccc(OCC)cc2)nc2ccsc2c1=O` gave miR-21 reporter 8.1%.
Screening COc1cccc(NC(=O)Cn2c(=O)n(-c3cccc(OC)c3)c(=O)c3sc4ccccc4c32)c1 returned miR-21 reporter -21.9%.

The list is partial. The share of hits here may be higher or lower than overall.
